Mtb growth – Mycobacterium tuberculosis H37Rv growth inhibition, cell based, confirmatory dose response (AID 1949) | M. tuberculosis H37Rv growth inhibition | most inactive calls were filed without a number and no value below 0 was filed | one-dose inhibition, % at 10 µg/mL; IC50 in µg/mL for titrated hits | hit rate 1.6% among 100,000;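 active = confirmed in a dose series; inconclusive = about 50% or more but not retested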;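 note: bacteria grown 7 days with compound before Alamar blue readout; 0% = untreated bacteria and 100% = reference antibiotic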
Numbers without * were called inactive; i = inactive; ? = inconclusive.

SMILES	Mtb growth
CCCCC(CC)C(=O)Nc1c(Cl)cccc1Cl (stereo not drawn)	?
Cc1nn(-c2cc(N3CCN(S(=O)(=O)Cc4ccccc4)CC3)ccc2[N+](=O)[O-])c(=O)c2ccccc12	i
CC1=C(C(=O)OCc2ccccc2)C(c2ccccc2Br)CC(=O)N1 (stereo not drawn)	i
CC1CCCCN1C(=S)NC1CCCC1 (stereo not drawn)	i
CC(C(=O)Nc1ccc2c(c1)OCCO2)n1nnc(-c2ccccc2)n1 (stereo not drawn)	i
COC(=O)C1=C(C)NC(C)=C(C(=O)OC)C1c1ccc(-c2cccc(Br)c2)o1	i
CCOC(=O)c1c(C)n(-c2ccc(C)cc2)c2ccc(OCC(O)CN3CCN(CCO)CC3)cc12 (stereo not drawn)	10%
CCN(CC)C(=O)C1CCN(C(=O)c2ccc(C(C)(C)C)cc2)CC1	i
CCC12c3ccccc3C(c3ccccc31)C1C(=O)NC(=O)C12 (stereo not drawn)	0%
CC(=O)Nc1c(C)ccc(CNC(=O)CSc2nc(-c3ccccc3)cs2)c1C	i
COc1ccc(NC(=O)COc2ccc(-n3cnnn3)cc2)cc1Cl	2%
Cc1c(NC(=S)NC(=O)C(C)(C)C)c(=O)n(-c2ccccc2)n1C	1%
C=CCNC(=S)Nc1sc(C)c(-c2ccc(OC)c(OC)c2)c1C(=O)OCC	i
CS(=O)(=O)N(CC(=O)N1CCN(c2ccccc2F)CC1)Cc1ccccc1	i
CC(Sc1nc(O)c(-c2ccccc2)c(=O)[nH]1)C(=O)Nc1cccc(Cl)c1 (stereo not drawn)	?
COc1ccc(N(CC(=O)Nc2c(C)cccc2C(C)C)S(=O)(=O)c2ccccc2)cc1Cl	2%
Cc1ccc(S(=O)(=O)Nc2ccccc2C(=O)O)cc1[N+](=O)[O-]	i
Cc1nc2ccc(NC(=S)N3CCOCC3)cc2nc1C	i
O=C(NC(NC(=S)Nc1ccccc1Cl)C(Cl)(Cl)Cl)c1ccccc1F (stereo not drawn)	i
C=CCc1cc(C)cc(C)c1OCCn1cncn1	i
COc1nc(-c2ccccc2)ccc1-c1noc(-c2ccccc2Cl)n1	i
Cc1c(C)c2ccc(OCc3ccc4ccccc4c3)cc2oc1=O	3%
CCOc1cc(C2C(C(=O)OC)=CNC=C2C(=O)OC)cc(Br)c1OC	i
COc1cc(C(=O)NC(=S)Nc2ccc(C#N)cc2)cc(OC)c1OC	i
CCn1c(SCC(=O)N2c3ccccc3CCc3ccccc32)nnc1-c1ccco1	3%

For reference, some entries already given.
SMILES	Mtb growth
COc1nc(-c2ccccc2)ccc1-c1noc(-c2ccccc2Cl)n1	i
Cc1c(C)c2ccc(OCc3ccc4ccccc4c3)cc2oc1=O	3%
CCOc1cc(C2C(C(=O)OC)=CNC=C2C(=O)OC)cc(Br)c1OC	i
COc1cc(C(=O)NC(=S)Nc2ccc(C#N)cc2)cc(OC)c1OC	i
CCn1c(SCC(=O)N2c3ccccc3CCc3ccccc32)nnc1-c1ccco1	3%

The listing continues.
SMILES	Mtb growth
Cc1cc(C(=O)O)c(NC(=O)c2ccccc2)s1	i
C#CC(C)(C)OC(=O)Nc1ccc([N+](=O)[O-])cc1	i
Cc1cc(=O)oc2ccc(OC(=O)COc3ccc(Br)cc3)cc12	i
CCOc1ccc(C(=O)N2CCN(c3ccc(OC)cc3)CC2)cc1OCC	i
CC(C)C1=CC23CCC4C(C)(C(=O)O)CCCC4(C)C2CC1C1C(=O)N(c2ccc(O)cc2)C(=O)C13 (stereo not drawn)	1%
CC(C)(C)C(=O)Nc1ccc2[nH]c(=O)[nH]c2c1	i
O=C(/C=C/c1ccc(F)cc1)Nc1ccccc1Cl	2%
COc1ccc(S(=O)(=O)Nc2ccccc2C(C)C)cc1C	i
CC(=O)N1CCc2cc(S(=O)(=O)N(C)c3ccccc3)ccc21	i
Cc1ccc(CN2CCN(Cc3ccco3)CC2)cc1	i
COc1ccc(C(=O)NC(C)(C)C)cc1I	i
COc1cccc(OC)c1C(=O)Nc1ccc(Br)cn1	i
COc1ccc2nc(SCC(=O)Nc3ccc(OC)c(Cl)c3)[nH]c2c1	37%
O=C(Cn1cnc2scc(-c3ccccc3)c2c1=O)Nc1ccccc1C(F)(F)F	i
FC(F)(F)c1ccc(NCc2ccco2)nc1	2%
O=C(COc1ccc2c(c1)CCCC2)NCc1ccccc1	3%
CCc1cc2c(=O)c(-c3ccc(F)cc3)c(C(F)(F)F)oc2cc1OCC(=O)O	i
Cc1ccc(C(=O)NC(C(=O)N2CCN(C)CC2)C23CC4CC(CC(C4)C2)C3)cc1 (stereo not drawn)	i
O=C(Cn1nc(-c2ccc(Cl)cc2)c2ccccc2c1=O)N1CCC(Cc2ccccc2)CC1	i
CCOC(=O)c1ccccc1NC(=O)CN1C(=O)c2ccccc2S1(=O)=O	i
CC(C)NS(=O)(=O)c1ccc(OCC(=O)NCc2ccco2)cc1	i
Cc1c(C(N)=O)sc(NC(=O)Cc2c(F)cccc2Cl)c1C#N	i
O=C1CC(c2nc(-c3ccccc3)cs2)C2(CCCCC2)O1 (stereo not drawn)	4%
COc1cc(NC(=O)C(C)c2ccc(CC(C)C)cc2)cc(OC)c1OC (stereo not drawn)	i
Cc1cc(Cl)ccc1OC(C)C(=O)Nc1cccnc1 (stereo not drawn)	i

Of the compounds above, these contain a nitro group on carbon.
SMILES	Mtb growth
Cc1nn(-c2cc(N3CCN(S(=O)(=O)Cc4ccccc4)CC3)ccc2[N+](=O)[O-])c(=O)c2ccccc12	i
Cc1ccc(S(=O)(=O)Nc2ccccc2C(=O)O)cc1[N+](=O)[O-]	i
C#CC(C)(C)OC(=O)Nc1ccc([N+](=O)[O-])cc1	i

(more compounds)
SMILES	Mtb growth
CCN(Cc1ccccc1)C(=O)c1sc2ccccc2c1Cl	i
Cc1ccc(NC(=O)CSc2nnc(C(F)(F)F)n2N)c(C)c1	i
O=C(O)C1CC=CCC1C(=O)Nc1cc(Cl)ccc1Cl (stereo not drawn)	i
COC(=O)c1sccc1NC(=O)Cn1nnc(-c2ccc(C)cc2)n1	i
N#CC1c2ccccc2C=CN1C(=O)c1ccccc1 (stereo not drawn)	1%
CC(=O)c1ccc(S(=O)(=O)c2ccc(C)cc2)c([N+](=O)[O-])c1	2.9µg/mL*
O=C(Nc1nnc(C2CCCCC2)s1)c1cccnc1	i
CCNC(=O)C1CCN(C(=O)c2ccc(OC)cc2)CC1	i
CN(C1CCS(=O)(=O)C1)S(=O)(=O)c1ccc(C2CCCCC2)cc1 (stereo not drawn)	i
CC(=O)NC1C(=O)N(C(C)C)c2ccccc21 (stereo not drawn)	i
COC(=O)Nc1c(C)nn(Cc2ccccc2C)c1C	i
COc1ccc(N2CCN(C(=S)Nc3ccccc3OC)CC2)cc1	i
Cc1cccc(NC(=O)c2ccc(NC(=O)Cc3ccc(Cl)cc3)cc2)c1	2%
O=C(NCc1cccnc1)c1cc(-c2cccc(Br)c2)nc2ccccc12	i
O=C(NC12CC3CC(CC(C3)C1)C2)N(Cc1ccccc1)Cc1ccncc1	8%
CS(=O)(=O)N(CC(=O)N1CCC(Cc2ccccc2)CC1)C1CCCCC1	i
Cc1ccc(OCCCC(=O)Nc2ccc(S(=O)(=O)Nc3cc(C)on3)cc2)c(C)c1	3%
CC(=O)Nc1cccc(C(=O)Nc2ccccc2C(=O)O)c1	i
CCc1cccc(CC)c1NC(=O)CN(c1ccc(OC)cc1)S(=O)(=O)c1ccc(C)cc1	i
O=C(CSc1nc2sc3c(c2c(=O)n1-c1ccccc1)CCCCC3)NCc1ccco1	i
COc1ccc(S(=O)(=O)N2CCN(c3ccc([N+](=O)[O-])c(-n4nc(C)cc4C)c3)CC2)cc1OC	i
COc1ccc(-c2noc(CNC(=O)c3cc(Br)ccc3Cl)n2)cc1	i
CN1CCN(NC(=S)Nc2ccc(Br)cc2Cl)CC1	i
Cc1sc2ncnc(SC3CCCCN(C(=O)c4ccccc4)C3=O)c2c1C (stereo not drawn)	i
CCCNC(=O)c1ccc(NC(=O)c2ccco2)cc1	i
Additional structures:
SMILES	Mtb growth
O=C(NC(C(=O)N1CCOCC1)C12CC3CC(CC(C3)C1)C2)C1CCCCC1 (stereo not drawn)	2%
O=S(=O)(Nc1ccc(NS(=O)(=O)c2ccc(F)cc2)cc1)c1ccc(F)cc1	i
COc1ccc(OCC(=O)N2CCN(Cc3cccc(C)c3)CC2)cc1	i
O=[N+]([O-])c1cnn(Cc2cccc3ccccc23)c1	i
COc1cc(C(=O)Nc2ccccc2Oc2ccccc2)cc(OC)c1OC	i
CCc1ccccc1N(CC(=O)Nc1cccc(C)c1C)S(=O)(=O)c1ccccc1	4%
Cc1cccc(NC(=O)COc2ccc(S(=O)(=O)N3CCCCC3)cc2Cl)c1C	i
CCOC(=O)C1=C(C)N=c2s/c(=C3\C(=O)N(C(C)=O)c4ccccc43)c(=O)n2C1c1cccc([N+](=O)[O-])c1 (stereo not drawn)	i
O=C(NC(=S)NC1CCCCC1)c1ccccc1	i
CC(=O)N1CCN(c2ccc([N+](=O)[O-])c(NCC3CCCO3)c2)CC1 (stereo not drawn)	i
COc1cc(-c2nnc(COc3ccc4cc(Br)ccc4c3)o2)cc(OC)c1OC	2%
CCN(CC)C(=O)CNC(=O)Cc1ccc(Cl)cc1	i
Cc1cc(C)c(NC(=O)COc2ccc3c(C)cc(=O)oc3c2)c(C)c1	i
CCc1cccc(C)c1NC(=O)C1CN(S(=O)(=O)c2ccccc2)CCN1S(=O)(=O)c1ccccc1 (stereo not drawn)	4%
C=CCn1c(N)cc(=O)nc1SC(C)C(=O)Nc1ccc(Cl)cc1 (stereo not drawn)	i
CC(=O)Oc1ccc2c(=O)c(-c3ccccc3)c(C(F)(F)F)oc2c1OC(C)=O	2%
O=S(=O)(Nc1ccccn1)c1ccc(I)cc1	i
CN1C(=O)c2cccc3c(S(=O)(=O)NCc4ccco4)ccc1c23	i
O=C(Nc1nc2ccccc2n1CCOc1ccccc1)c1cccs1	i
COC(=O)c1c(NC(=O)c2cccc(OC)c2OC)sc(C)c1-c1ccc(F)cc1	7%
CCCSc1ncc(Cl)c(C(=O)N2CCN(c3ccc(OC)cc3)CC2)n1	i
CC(=O)Nc1ccc(OCC(O)Cn2c(Cc3ccccc3)nc3ccccc32)cc1 (stereo not drawn)	i
O=C1C(=Cc2ccc(Br)cc2)SC(=Nc2ccccc2)N1c1ccccc1	1%
COCc1nc2ccccc2n1CC(=O)N(c1ccccc1)C(C)C	i
CCOc1ccccc1NS(=O)(=O)c1cc(C)ccc1OC	i

An excerpt of these results, as labelled records:
> COc1cc(-c2nnc(COc3ccc4cc(Br)ccc4c3)o2)cc(OC)c1OC
  Mtb growth = 2%
> CCN(CC)C(=O)CNC(=O)Cc1ccc(Cl)cc1
  Mtb growth = i
> Cc1cc(C)c(NC(=O)COc2ccc3c(C)cc(=O)oc3c2)c(C)c1
  Mtb growth = i
> CCc1cccc(C)c1NC(=O)C1CN(S(=O)(=O)c2ccccc2)CCN1S(=O)(=O)c1ccccc1 (stereo not drawn)
  Mtb growth = 4%

Next records follow:
SMILES	Mtb growth
O=C(Nc1ccc(N2CCN(C(=O)c3cccs3)CC2)cc1)c1ccc2c(c1)OCO2	8%
Cc1ccc(C)c(NC(=O)CN(c2cccc(F)c2)S(C)(=O)=O)c1	7%
CC(C)c1ccc(C(=O)Oc2cc(=O)oc3ccccc23)cc1	i
Cc1cc(OCc2nc(-c3ccccn3)no2)cc(C)c1Cl	6%
Cc1c(-c2cccc(Cl)c2)nc2ccccc2c1C(=O)N1CCCCCC1	i
CCC(C)NC(=O)CN(Cc1ccccc1)S(=O)(=O)c1cc(Cl)ccc1Cl (stereo not drawn)	5%
COc1ccc2c(c1OC)C(=O)N(c1ccc(Cl)cc1)C2	i
CCOC(=O)C1=C(O)/C(=C/c2ccc(CC)cc2)SC1=Nc1ccc([N+](=O)[O-])cc1	26%
CCc1c(C)nc(SCC(=O)Nc2ccc(Cl)cc2)[nH]c1=O	3%
COc1cccc(C(=O)Oc2cc3oc(=O)cc(-c4ccccc4)c3cc2Cl)c1	i
Cc1cc(C)cc(NC(=O)CC2Nc3ccccc3NC2=O)c1 (stereo not drawn)	i
COc1ccc(CNS(=O)(=O)c2ccc(Br)cc2)cc1	13%
CCN1C(N)=C(C#N)C(c2ccc3oc4ccccc4c3c2)C2=C1C(=O)CCC2 (stereo not drawn)	0%
O=C(Oc1ccccc1Cl)C1CCCCC1	i
O=C(Nc1ccc(NC(=S)NC(=O)c2cccc(Cl)c2Cl)cc1)c1cccc(Cl)c1	i
COc1ccc(C(=O)NC(=S)Nc2nc3c(Cl)cccc3s2)cc1OC	1%
O=C(NCC1CCCO1)C1CCN(Cc2ccccc2O)CC1 (stereo not drawn)	i
Cc1ccc(CNC(=O)CN(Cc2cccc(C)c2)S(=O)(=O)c2ccc(Cl)cc2)cc1	i
COc1ccc(C)cc1NC(=O)CSc1nnc(C(C)NC(=O)c2ccccc2C)n1C (stereo not drawn)	i
CCOc1ccc(N2CC(C(=O)Nc3ccccc3C(=O)OC)CC2=O)cc1 (stereo not drawn)	i
Cc1oc(C(=O)O)cc1CSc1nnc(-c2ccccc2)n1C	i
O=c1[nH]c(=S)[nH]c(O)c1Cc1ccccc1	i
CN1CCN(CC(=O)N(Cc2c(C#N)c3ccccc3n2C)c2ccccc2)CC1	i
Cc1ccc(CC2C(=O)N(c3nc(C)cc(C)n3)C(=O)C2C)cc1 (stereo not drawn)	i
O=S1(=O)C=C(Sc2nnc(-c3ccncc3)o2)c2ccccc21	1.3µg/mL*
Cc1ccc2oc(C3Nc4ccccc4NC4=C3C(=O)CC(c3cccs3)C4)cc(=O)c2c1 (stereo not drawn)	7%
O=C(Nc1ccc(Cc2ccncc2)cc1)C(F)(F)F	i
CCOC(=O)C1CCCN(S(=O)(=O)c2ccc(S(N)(=O)=O)cc2)C1 (stereo not drawn)	i
CN1CCN(c2ccc(NC(=O)c3sc4ccccc4c3Cl)cc2)CC1	i

Part of the list above, reformatted.
Structure | Mtb growth
CCOC(=O)C1CCCN(S(=O)(=O)c2ccc(S(N)(=O)=O)cc2)C1 (stereo not drawn) | i
COc1ccc(CNS(=O)(=O)c2ccc(Br)cc2)cc1 | 13%

The list is partial; count on the stated rates, not on these rows.
